Vif TR-FRET – inhibitors of Vif binding to APOBEC3G peptide, primary screen, biochemical, TR-FRET, GST-Vif 1-94, biotin-A3G peptide, dose response retest (AID 1117319); Virion infectivity factor (Human immunodeficiency virus type 1 group M subtype B (isolate …; TR-FRET GST-Vif / biotin-A3G peptide binding; higher % means a stronger effect; test concentration not given here; strong numbers were not always called active; inhibition, %; hits with a dose series show IC50 in µM; 0.57% of 260,000 active;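 active = above the screen mean plus three standard deviations and confirmed in dose response; inconclusive = results disagree or hit not tested in dose response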;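 also: Vif residues 1-94 fused to GST binding biotinylated APOBEC3G peptide 110-148; 0% = full assay without inhibitor and 100% = GST in place of GST-Vif; retest series ran down from 100 µM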
Calb FLC – C. albicans growth inhibition with fluconazole, primary screen, CaCi-2 strain, Alamar Blue fluorescence; C. albicans CaCi-2 (fluconazole-resistant clinical isolate) + fluconazole, 48 h; growth inhibition, % (no concentration beside the values); 0.57% of 300,000 active; AID 1979, 2009;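 active = most replicates above 75%; inconclusive = exactly half above 75%; inactive = most below 75%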;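 also: all wells also contain fluconazole at 8 µg/ml as a sub-toxic cotreatment; 0% = median of DMSO wells and 100% = median of geldanamycin control wells; wells of about 8 µL received 7.5 nL stock; the first replicate is given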
LANA-H2B inh – blockers of LANA interaction with H2A/H2B – biochemical, FP readout, HTS, primary screen; inhibition, % (no concentration beside the values); Protein LANA1 (Human herpesvirus 8 type P (isolate GK18)), Q9QR71; 0.6% of 320,000 active; cell-free LANA-H2A/H2B peptide, fluorescence polarization; in the data active = inhibition mostly above about 10%, no sharp cut-off; inactive = mostly below about 6.7%;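 also: stock transfer was 7.5 nL into about 10 µL; 0% = median of vehicle wells and 100% = median of positive control wells; one replicate is shown; the record names a cut of 25% in any replicate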
Target sequence (Q9QR71 whole entry, looked up): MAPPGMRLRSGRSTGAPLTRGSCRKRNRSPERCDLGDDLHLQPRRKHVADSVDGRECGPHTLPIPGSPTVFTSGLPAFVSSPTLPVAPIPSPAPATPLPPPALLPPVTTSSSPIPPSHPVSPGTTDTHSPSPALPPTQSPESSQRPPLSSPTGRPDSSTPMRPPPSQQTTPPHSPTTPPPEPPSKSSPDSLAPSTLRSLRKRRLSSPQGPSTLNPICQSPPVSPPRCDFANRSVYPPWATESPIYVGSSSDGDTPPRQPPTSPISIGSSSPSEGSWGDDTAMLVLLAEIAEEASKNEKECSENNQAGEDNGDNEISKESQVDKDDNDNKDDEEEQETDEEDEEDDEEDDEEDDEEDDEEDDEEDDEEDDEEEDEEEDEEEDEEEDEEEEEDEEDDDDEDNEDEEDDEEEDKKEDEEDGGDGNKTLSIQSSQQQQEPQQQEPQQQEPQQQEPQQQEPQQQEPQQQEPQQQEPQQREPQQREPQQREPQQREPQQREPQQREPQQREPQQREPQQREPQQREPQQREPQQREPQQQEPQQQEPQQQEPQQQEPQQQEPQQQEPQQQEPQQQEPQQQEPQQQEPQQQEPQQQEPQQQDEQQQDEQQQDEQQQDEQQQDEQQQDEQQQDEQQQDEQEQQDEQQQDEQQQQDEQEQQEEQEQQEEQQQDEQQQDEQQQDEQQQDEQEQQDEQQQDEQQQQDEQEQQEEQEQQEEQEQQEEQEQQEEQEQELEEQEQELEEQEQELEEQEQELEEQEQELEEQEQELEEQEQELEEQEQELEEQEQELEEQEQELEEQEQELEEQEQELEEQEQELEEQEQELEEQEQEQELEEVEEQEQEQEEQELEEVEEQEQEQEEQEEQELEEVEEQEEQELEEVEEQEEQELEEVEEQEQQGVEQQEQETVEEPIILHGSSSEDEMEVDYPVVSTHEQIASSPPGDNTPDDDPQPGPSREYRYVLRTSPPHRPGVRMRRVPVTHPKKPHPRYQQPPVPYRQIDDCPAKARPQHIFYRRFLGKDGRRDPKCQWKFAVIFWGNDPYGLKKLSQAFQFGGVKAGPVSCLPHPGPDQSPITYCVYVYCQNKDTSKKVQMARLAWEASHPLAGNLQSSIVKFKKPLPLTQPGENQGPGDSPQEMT
RanGTP-Impb inh – inhibitors of RanGTP-importin-beta interaction, primary screen, biochemical, FRET, CFP-Ran, YFP-importin-beta, homogeneous; Ran GTPase (GTP-bound) - importin-beta complex; cell-free CFP-Ran/YFP-importin-beta FRET ratio; inhibition, % (test concentration not listed); 1.1% of 300,000 active;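 active = most replicates above 15%; inconclusive = exactly half above 15%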;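 also: 0% = DMSO wells and 100% = Ran loaded with GDP instead of GTP; wells of about 40 µL received 100 nL stock; the first replicate is given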
MLL AF4-AF9 inh – inhibitors of AF4 peptide binding to AF9, primary screen, biochemical, AlphaScreen, biotin-AF4 peptide, FLAG-AF9, single point; inhibition, % at 10 µM; 0.47% of 350,000 active; AID 651704, 2012; Protein AF-9 (Homo sapiens), P42568;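 active = every replicate reaching a set inhibition limit, whatever the replicate mean, cut at about 25% in these data; inconclusive = mean inhibition reaches that limit but some replicates miss it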;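 also: 0% = plate neutral control median and 100% = total signal loss; the record names both 10 and 1 µM as test concentration; the first replicate is given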
Beta cell apopt – inhibitors of cytokine-induced beta cell apoptosis, primary screen, luminescence; protection from apoptosis, % (no concentration beside the values); 0.8% of 300,000 active; INS-1E cytokine-induced death, ATP luminescence, 48 h; percent of positive-control rescue, neutral wells zero;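 active = all replicates at 75% or more, or half of them and the mean; inconclusive = half reach 75% but not the mean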;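 also: 0% = cytokine-treated negative control wells and 100% = positive control rescue; higher means more ATP so stronger rescue from cytokine killing; wells of about 40 µL received 100 nL stock; the first replicate is given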
T cruzi repl – inhibitors of intracellular T. cruzi growth, primary screen, luminescence, NIH3T3 host cells | 1.4% of 300,000 active | T. cruzi beta-gal in NIH3T3, 90 h | inhibition, % (concentration not given with the values);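 active = mean inhibition across valid replicates above about 55%, limit read from the data; inconclusive = mean below that limit but half or more replicates reach it; inactive = mean below it, under half of replicates reach it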;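 also: signal also drops with host cell toxicity which is not excluded here; 0% = plate median of DMSO wells and 100% = zero luminescence signal; higher percent means less beta-gal luminescence so fewer parasites; stock transfer was 50 nL into about 50 µL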
A1 inh – caspase 3/7 activation in MEF A1-2A-BIM cells, primary screen, A1 inhibitor project, cell-based, luminescence, HTS. Caspase-Glo 3/7 luminescence, 3 h; percent of clofoctol response, vehicle zero. caspase activation, % (test concentration not listed). 0.066% of 330,000 active. AID 2462, 2010;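 active = over half of replicate activation scores above 10%, or exactly half above 10 with the replicate mean above 10; inconclusive = replicate mean below 10 yet half the replicates above 10; inactive = over half of replicates below 10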;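 also: wells of about 30 µL received 50 nL stock; many hits fall short of the cut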
The depositor's hits bear a star; ? = inconclusive; nt = no result given; + = active, no number; & = joins results of further samples. This is a random part of the collection, and some 4.3% of all compounds hit somewhere here.

compound	Vif TR-FRET	Calb FLC	LANA-H2B inh	RanGTP-Impb inh	MLL AF4-AF9 inh	Beta cell apopt	T cruzi repl	A1 inh
O=S(=O)(NCCCc1ccccc1)c1ccccc1	3%	10	1.4	-4.0	nt	2	4	0.4
COc1cc([N+](=O)[O-])ccc1NC(=O)/C=C\C(=O)O	-3%	-2	-2.4	-3.9	-0.2	-5	4	1.3
O=[N+]([O-])c1cccc(/C=N/Nc2ccccn2)c1	nt	-19	0.9	3.9	2.8	-9	3	-0.6
COC(=O)CCC(=O)c1oc2ccc(Br)cc2c1N	20%	?	-3.8	1.4	nt	-3	-9	-0.4
COc1ccc(C(NC(=O)c2ccc(F)cc2)c2ccccc2)cc1 (stereo not given)	11%	-8	-0.6	-0.2	-3.1	1	5	-0.1
COc1ccc(CNC(=O)COc2cccnc2[N+](=O)[O-])cc1	0%	0	4.2	1.7	1.0	-8	-8	-0.4
COc1ccc(C(CNC(=O)c2cccc(NS(=O)(=O)c3ccc(Br)cc3)c2)N(C)C)cc1 (stereo not given)	6%	7	0.5	-0.9	2.1	0	-9	-0.8
Cc1cc(C)c[n+](CC(=O)c2ccc(C)c([N+](=O)[O-])c2)c1	nt	-7	-5.2	4.4	-0.2	-5	-2	0.7
CC1CCN(C(=O)Cn2ncc3c4ccccc4n(C)c3c2=O)CC1	6%	-2	9.2	0.4	8.7	0	14	0.7
Cc1cc[n+](-c2ccccc2)c2ccccc12	nt	-7	3.1	0.9	1.5	30	16	0.8
C[C@H](CO)N1C[C@H](C)[C@@H](CN(C)S(=O)(=O)c2cccs2)Oc2ccc(NC(=O)c3ccncc3)cc2C1=O	nt	nt	-0.4	nt	-1.3&0.4	2	nt	0.3
Cc1ccccc1OCCN1CCC(Cc2ccccc2)CC1	-8%	4	4.6	4.1	5.2	2	28	-0.2
Cc1c(N=Cc2ccco2)c(=O)n(-c2ccccc2)n1C	22%	-18	2.7	1.3	nt	-1	nt	-1.6
Cc1cc(C(=O)CC#N)c(C)n1-c1ccc(OC(F)F)cc1	6%	1	1.0	0.8	nt	2	9	-0.4
O=C(C1=C[C@H](C2CC2)C[C@H](OCCCCO)O1)N1CCOCC1	-4%	-6	-3.9	-4.2	1.6&-5.1	-2	-24	0.5
Cc1ccsc1C(=O)OCC(=O)N1CC(C)CC(C)C1 (stereo not given)	-2%	nt	10	nt	1.5	-5	nt	-1.0
COc1cccc(NS(=O)(=O)c2nc3nc(C)cc(C)n3n2)c1	4%	7	1.9	2.4	-1.1	3	3	1.1
Cc1cc(C(=O)COC(=O)Cc2n[nH]c(=O)c3ccccc23)c(C)n1-c1ccc2c(c1)OCO2	14%	7	-0.3	4.0	3.5	5	2	0.0
CCCN=C(C)C1=C(O)c2ccccc2C1=O	-5%	-21	5.0	3.7	-5.6	-3	-8	0.3
COC(=O)C1CCN(C(=O)c2ccc(OC)c(S(=O)(=O)N3CCCc4ccccc43)c2)CC1	2%	nt	2.8	nt	-2.5	0	nt	1.6

An excerpt from above, limited to RanGTP-Impb inh.
| molecule | RanGTP-Impb inh |
| --- | --- |
| Cc1c(N=Cc2ccco2)c(=O)n(-c2ccccc2)n1C | 1.3 |
| Cc1cc(C(=O)CC#N)c(C)n1-c1ccc(OC(F)F)cc1 | 0.8 |

Following part
compound	Vif TR-FRET	Calb FLC	LANA-H2B inh	RanGTP-Impb inh	MLL AF4-AF9 inh	Beta cell apopt	T cruzi repl	A1 inh
CC1(c2nnc(Cc3ccccc3)o2)CC(c2cccc(Cl)c2)=NO1 (stereo not given)	-3%	0	8.7	-3.3	nt	-10	-6	-0.4
COc1cc(CC(=O)OCC(=O)Nc2ccccc2C#N)cc(OC)c1OC	20%	nt	5.8	nt	-0.5	-1	nt	0.8
O=C(NCCc1ccc(F)cc1)c1ccc(Cl)c(S(=O)(=O)N2CCOCC2)c1	12%	nt	-1.2	nt	2.5	-11	nt	-0.3
O=S1(=O)CCN(Cc2cccc(C(F)(F)F)c2)CC1	4%	-5	-7.2	2.5	-1.3	0	-3	-0.1
C=CCC[C@@H](Cc1ccc(F)cc1)C(=O)OCCNC(=O)[C@H](CC=C)CC(=O)NCCO	1%	nt	nt	nt	-7.0	-2	nt	-0.8
O=C(Nc1ccc(Nc2ccccc2)cc1)c1ccccc1F	10%	-4	2.3	2.6	6.9	13	-3	-1.1
CCCCCCSc1ccc([C@@H]2[C@H]3C(=O)N(C)C(=O)[C@H]3[C@]3(C(=O)OC)CCCCN23)cc1	nt	-16	-3.0	-1.1	1.7	8	17	0.3
COc1cccc(CNC(=O)c2ccc(C3SCCS3)cc2)c1	nt	-27	-3.6	3.0	-2.3	-1	6	-0.2
COC(=O)c1onc(-c2c(Cl)cccc2Cl)c1C(=O)OC	-2%	-2	-3.0	-1.6	-1.8	-5	4	0.1
O=C(NCc1ccco1)c1cc(-c2ccccc2)c(N2CCOCC2)s1	28%	24	0.2	-0.9	nt	-3	22	0.4
COC(=O)COc1c(/C=C\c2nc(O)c([N+](=O)[O-])c(=O)[nH]2)cccc1OC	nt	-6	-2.0	6.8	-0.1	-2	-14	1.2
O=C(NC(=S)N1CCN(c2ccccc2)CC1)c1ccco1	nt	nt	0.5	nt	-1.3	-2	nt	1.5
COc1ccc(-c2nc(C3CCCCC3)c3cc(OC)ccc3n2)cc1	nt	1	-4.7	1.4	0.8	6	-40	-0.3
COC(=O)c1ccc(CSc2ncnc3c2oc2ccccc23)o1	-118%	33	1.3	-0.6	nt	9	-9	-2.5
CCN(CC)CCNC(=O)c1ccc(-n2c(C)cc3c2CCCC3=O)cc1	?	3	2.8	3.8	-21	-7	-11	0.5
CCOC(=O)C1C(=O)CC(C)(O)C(C(=O)OCC)C1c1ccc(NC(C)=O)cc1 (stereo not given)	10%	2	-5.4	?	-0.4	-5	-7	0.9
CC(Sc1nnnn1C)C(=O)Nc1nc(-c2ccc(F)c(F)c2)cs1 (stereo not given)	2%	nt	-4.9	nt	2.8	1	nt	0.1
CC(C)CN1C(=O)c2ccc(NC(=O)Cc3ccccc3)cc2C1=O	-2%	12	-11	2.3	-1.3	nt	1	0.4
COc1ccc(NC(=O)N2CCCC(c3nc(-c4ccc(F)cc4)no3)C2)cc1 (stereo not given)	29%	-19	-4.4	nt	-1.0	-6	4	1.0
Cn1c(=O)oc2cc(S(=O)(=O)N3CCCCC3)ccc21	nt	4	2.2	-0.7	-1.6	-9	-1	0.1
O=C(Cc1cccs1)N(Cc1cccs1)C1(C(=O)NC2CCCCC2)CCCCC1	-1%	7	-3.4	-2.0	nt	11	14	-0.3
Cc1cccc(NC(=S)c2nc3ccccc3s2)c1	0%	-2	-0.3	-0.9	nt	2	-15	-13
CN1C(=O)NC(c2ccccc2)C2=C1CN(Cc1ccco1)C2=O (stereo not given)	17%	-3	-4.4	3.9	0.5	2	-2	0.2
Cc1[nH]c2ccccc2c1/C=N/NC(=O)c1cccc(F)c1	nt	-4	1.5	-0.4	4.0	-4	8	-0.6
COc1ccc([N+](=O)[O-])cc1N(CC(=O)NC1CCCC1)S(C)(=O)=O	nt	?	0.5	3.1	-0.2	-1	4	0.3
Cc1nc(NC(=O)c2ccccc2)sc1-c1csc(NCc2ccco2)n1	14%	12	nt	-2.6	nt	nt	-13	nt
COc1ccc(CC(=O)Oc2ccccc2Cl)cc1S(=O)(=O)N1CCOCC1	6%	0	0.6	1.7	-2.0	-1	-2	-2.4
O=c1ccnc(SCn2nnc3ccccc3c2=O)[nH]1	15%	-5	-2.8	-1.8	nt	-5	-15	1.3
C/C(=N\OC(=O)Nc1ccc(Cl)cc1)c1ccc(F)c(F)c1	1%	0	-4.5	-2.8	-0.2	-5	-7	-0.4
O=c1[nH]c(SCc2ccc(F)cc2)nc2c1cnn2-c1ccc(F)cc1	nt	-5	-1.2	1.8	-4.0	nt	-3	-0.1
O=C(NCc1ccco1)C1CCCN1C(=O)Nc1ccccc1Cl (stereo not given)	-3%	5	0.4	0.7	-2.1	-1	1	-0.4
CCOC(=O)C1CCN(Cc2nc3ccccc3c(=O)n2-c2ccc(F)cc2)CC1	9%	16	8.0	-0.8	nt	-1	20	-0.8
CCOc1ccc(C2c3[nH]c4ccccc4c3CCN2Cc2cccn2-c2ncccn2)cc1 (stereo not given)	30%	-6	-5.2	0.6	?	17	39	0.7
COc1ccc(CCNC(=O)c2cc3c(cc2Cl)N2CCCCCC2=NS3(=O)=O)cc1	1%	-10	-0.3	-0.6	-13	-3	19	-0.1
CN(C)NC(=S)NC(=O)C12CC3CC(CC(C3)C1)C2	2%	?	5.4	-0.8	-2.0	-7	0	0.7
CCc1ccccc1NC(=O)CN1CCN(C(=O)CNC(=O)c2ccccc2F)CC1	5%	nt	+	nt	-0.3	5	nt	-0.6
O=C(O)c1ccc(Cl)c(S(=O)(=O)Nc2ccccc2Cc2ccccc2)c1	nt	2	1.3	-2.7	0.1	0	9	1.7
CCOC(=O)C1=C(C)NC(=O)NC1c1cc(C)sc1C (stereo not given)	-3%	-5	0.8	-1.3	nt	-7	-8	0.5

Bioassay records (PubChem)
